Screening data deposited in PubChem BioAssay by ICCB-Longwood Screening Facility, Harvard Medical School.
GIV Gai3 FP: inhibitors of GIV GBA-motif binding to rat Galpha-i3; AID 1224905; actives 0.42% (n = 210,000); P08753; percent of control (FP), % (concentration not given with the values); Galpha-i3/FITC-GIV peptide fluorescence polarization, 90 min; stronger effect = lower value; scaled: aluminum fluoride 0%, vehicle 100%;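 active means replicate mean at 85% of control or lower, very high polarization wells dropped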;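 further: wells of about 15 µL received 100 nL stock; the first replicate is given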
Target sequence (P08753 whole entry, looked up): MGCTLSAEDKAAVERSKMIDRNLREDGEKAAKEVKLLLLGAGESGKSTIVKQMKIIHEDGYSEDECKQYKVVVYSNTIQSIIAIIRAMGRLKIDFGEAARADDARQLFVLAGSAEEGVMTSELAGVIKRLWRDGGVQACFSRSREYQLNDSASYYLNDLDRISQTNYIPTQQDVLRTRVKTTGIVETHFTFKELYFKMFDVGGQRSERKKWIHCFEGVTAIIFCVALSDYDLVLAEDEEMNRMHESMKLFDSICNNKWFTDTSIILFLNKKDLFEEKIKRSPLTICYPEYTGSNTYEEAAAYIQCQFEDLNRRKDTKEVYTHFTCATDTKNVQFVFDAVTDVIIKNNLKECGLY
Sa growth 42C: blocks Staphylococcus aureus growth | relative growth, % (test concentration not listed) | actives 0.53% (n = 170,000) | S. aureus RN4220 growth, OD600, 20 h, 42 °C; stronger effect = lower value;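 active means growth at 42 °C up to 50% and 20 or more points under that at 30 °C, or under 10% at both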;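 further: 300 nL library stock went into each well; scaled to the means of positive and negative controls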
HCMV NEC inh: cytomegalovirus nuclear egress complex inhibition. inhibition, % (concentration not given with the values). actives 0.15% (n = 190,000). HTRF UL50-UL53 interaction, normalized percent inhibition;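 active means both replicates at 50% or more, plus weaker picks with an unusually low signal ratio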;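 further: stock transfer was 100 nL into about 20 µL; 0% = negative control wells and 100% = wells with untagged competitor protein; inactives centre near -12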
Sa growth 42C second temp: recorded beside Sa growth 42C, whose call it bears; relative growth, %; measured here: growth at 30 °C;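 optical density after 20 h as mean of two plates; 100% = untreated growth and lower means inhibition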
* hit, by the source's call; x = no result given; & = joins results of further samples.

Values run as follows: GIV Gai3 FP	Sa growth 42C	Sa growth 42C second temp	HCMV NEC inh
CN1CC2=C(Nc3ncnn3C2c2ccc(Cl)cc2)/C(=C/c2ccc(Cl)cc2)C1 (stereo not given)
    104	x	x	2
O=C(CSc1nnc(-c2ccco2)o1)NC(=O)C1COc2ccccc2O1 (stereo not given)
    x	78	87	-31
O=C(c1cnn(-c2ccccc2)n1)N(CC1CCCO1)C1CCS(=O)(=O)C1 (stereo not given)
    x	79	95	-6
CN(C(=O)c1cc2c(s1)-c1ccc(Cl)cc1SC2)c1cccc(Cl)c1
    106	98	101	x
COc1ccccc1CNC(=O)CSc1nc2c(-c3ccccc3)csc2c(=O)n1C
    97	x	x	-10
Cc1ccc(CN2CCc3nc(N4CCN(c5ncccn5)CC4)ncc3C2)cc1
    109	103	99	x
Cc1cccc(-c2nc(SCC(=O)N(C)c3ccccc3)c3c(=O)n(C)c(=O)n(C)c3n2)c1
    97	91	94	x
O=C(Nc1ccccc1O)c1cccc(S(=O)(=O)N2CCCC2)c1
    103	94	78	-18
Cc1c(C(=O)N2CCCC2)c(S(=O)(=O)N2CCN(Cc3ccccc3)CC2)c(C)n1C
    107	x	x	7
Cc1cc(O)c(C(c2ccccc2)N2CCN(c3ccc(F)cc3)CC2)c(=O)n1Cc1ccco1 (stereo not given)
    100	109	92	x
O=C(NCC1COc2ccccc2O1)c1ccccc1Br (stereo not given)
    103	96	82	-14
O=S(=O)(c1ccccc1)c1ccc(C(F)(F)F)cn1
    x	79	80	-19
Cc1cc(-n2ccnc(NCCC(C)C)c2=O)ccc1Br
    101	x	x	1
O=C(C1CCCN(CC2CC3C=CC2C3)C1)N1CCC(Cc2ccccc2)CC1 (stereo not given)
    102	119	93	x
Cc1ccc(OC(=O)c2cc(-c3ccc4c(c3)OCCO4)on2)cc1C
    104&106	2.2*	33*	-12&-20
COc1ccc(Cl)cc1-c1nc(C=Nc2ccc(C)cc2Br)c(O)o1
    100	x	x	-10
CC1(C)CC(=O)c2cc(-c3nc(-c4ccc(Cl)cc4)cs3)c(=O)n(-c3ccc(F)cc3)c2C1
    95	105	91	-16
COC(=O)c1ccccc1NC(=O)c1ccccc1Br
    100	86	74	x
CCOC(=O)N1CCC(NC(=O)Nc2ccc(F)cc2)CC1
    99	94	91	-26
CC(=O)N1c2ccc(S(=O)(=O)N3CCCN(Cc4ccc(F)cc4)C3)cc2CC1C (stereo not given)
    102	100	84	-39
Cc1cn(S(=O)(=O)c2ccc3c(c2)CCCC3)cn1
    100	x	x	-5
Cc1nc(N2CCCC2)ncc1C(=O)Nc1ccc(OC(F)(F)F)cc1
    108	92	90	x
O=C1COc2cc(S(=O)(=O)N3CCCC(C(=O)N4CCN(c5ccccc5)CC4)C3)c(Cl)cc2N1 (stereo not given)
    100	x	x	-8
CCS(=O)(=O)N1CC(=O)N(c2ccc(C)c(C)c2)C(C)(C(=O)NC2CCCCCC2)C1 (stereo not given)
    107	105	92	x
O=C(Nc1ccc(S(=O)(=O)N2CCOCC2)cc1)c1sc2ccccc2c1Cl
    102	x	x	-24
Nc1ccc(Cl)cc1C(O)c1ccccc1 (stereo not given)
    105	93	92	-30
COc1cccc(OC)c1C(=O)N1CCCCC1
    102	102	92	1
COc1ccc(-c2noc(CN3CCN(c4cccc(Cl)c4)CC3)n2)cc1
    102	100	54	-16
Cc1cccc(Nc2sc(C(=O)c3ccc(Cl)cc3)c(N)c2C(N)=O)c1
    119	96	90	x
O=S1(=O)CCC(NC(=S)N2CCCCC2)C1 (stereo not given)
    103	126	99	x

Profiles, quoted from the list. Order of screens: GIV Gai3 FP, Sa growth 42C, Sa growth 42C second temp, HCMV NEC inh
Nc1ccc(Cl)cc1C(O)c1ccccc1 (stereo not given) reads 105, 93, 92, -30
Cc1cn(S(=O)(=O)c2ccc3c(c2)CCCC3)cn1 reads 100, x, x, -5
COc1cccc(OC)c1C(=O)N1CCCCC1 reads 102, 102, 92, 1
Cc1nc(N2CCCC2)ncc1C(=O)Nc1ccc(OC(F)(F)F)cc1 reads 108, 92, 90, x
Cc1cccc(Nc2sc(C(=O)c3ccc(Cl)cc3)c(N)c2C(N)=O)c1 reads 119, 96, 90, x

The results go on.
Values run as follows: GIV Gai3 FP	Sa growth 42C	Sa growth 42C second temp	HCMV NEC inh
CCCSc1nnc(/N=C/NO)s1
    95	85	46	0
COc1ccc(S(=O)(=O)NC(CC(=O)N2CCCCC2)C(C)C)cc1 (stereo not given)
    100	95	93	x
O=S(=O)(NCc1cccs1)c1c(F)cccc1F
    99	110	88	-6
Cc1ccc(NC(=O)C(C)Sc2nc(=O)cc(N)n2-c2cccc(C)c2)cc1 (stereo not given)
    105	106	93	-13
CC1CCN(C(=O)c2cc(S(=O)(=O)N3CCCC(C(=O)Nc4nccs4)C3)c[nH]2)CC1 (stereo not given)
    104	x	x	-11
C=CCn1c(O)c(C#N)c(C)cc1=O
    100	92	88	x
CCOC(=O)c1c(C)n(C)c2c1cc(OC(=O)c1cccc3ccccc13)c1ccccc12
    100	x	x	11
O=C(NCc1cccnc1)C1CCC(c2ccc(Cl)cc2)CC1 (stereo not given)
    99	85	63	-25
COc1ccc(-c2[nH]c3c(c2-c2c(-n4cccc4)n(C)c(=O)[nH]c2=O)c(=O)[nH]c(=O)n3C)cc1F
    102	95	84	-28
CCc1ccc2c(c1)C1C=CCC1C(c1ccc(C(=O)O)cc1)N2 (stereo not given)
    115	66	81	-2
COc1ccc(NC(=O)c2ccc3nc(CCc4ccccc4)oc3c2)cc1
    101	98	99	x
CN1C(=O)C2(NC(=O)c3ccccc3N2C)c2ccccc21 (stereo not given)
    x	73	89	-19
Cc1noc(/C=C/c2cccs2)c1S(=O)(=O)N1CCC(C(=O)Nc2ccc(F)c(Cl)c2)CC1
    104	105	89	-24
Nn1c(CSc2ccccn2)nc2ccccc2c1=O
    104	95	82	x
O=C(O)/C=C/c1ccc2noc(-c3ccccc3)c2c1
    x	95	98	-57
CCOC(=O)N1CCC(NC(=O)c2cnn3ccccc23)CC1
    103	100	81	-1
Cc1onc(-c2c(Cl)cccc2Cl)c1NC(=O)NC(C)C
    106	102	87	-16
Cc1ccc(COC2CN(C(=O)C3CCCCC3)C2)cc1
    100	x	x	-7
COc1cc(CNc2nn[nH]n2)ccc1OCC(N)=O
    101	94	91	-7
CCOC(=O)c1cc(C)n(-c2ccc(C)c(C)c2)c1C
    102	102	92	x

A draw from above in order of count of non-hydrogen atoms, smallest number first:
Values run as follows: GIV Gai3 FP	Sa growth 42C	Sa growth 42C second temp	HCMV NEC inh
COc1cc(CNc2nn[nH]n2)ccc1OCC(N)=O
    101	94	91	-7
O=C(NCc1cccnc1)C1CCC(c2ccc(Cl)cc2)CC1 (stereo not given)
    99	85	63	-25
O=C(c1cnn(-c2ccccc2)n1)N(CC1CCCO1)C1CCS(=O)(=O)C1 (stereo not given)
    x	79	95	-6
CC1CCN(C(=O)c2cc(S(=O)(=O)N3CCCC(C(=O)Nc4nccs4)C3)c[nH]2)CC1 (stereo not given)
    104	x	x	-11

Remaining list, next part:
Values run as follows: GIV Gai3 FP	Sa growth 42C	Sa growth 42C second temp	HCMV NEC inh
COc1ccc(-c2cc(=O)c3cc(OC(=O)Cc4ccccc4)ccc3o2)cc1
    111	104	81	x
Cc1ccc(CCNC(=O)CCn2cccc2)cc1
    100	x	x	-27
O=C(Cn1c(=O)n(Cc2cccs2)c(=O)c2cccnc21)Nc1ccc(F)cc1
    103	76	100	3
O=S(=O)(Cc1ccc(Cl)cc1)c1ccc(C(F)(F)F)cn1
    103	95	86	-26
CCc1ccc(-c2ccc(=O)[nH]n2)cc1S(=O)(=O)N1CCCCC1
    112	x	x	-48
CCC(C(=O)NC(C)C)N1C(=O)CCn2nc(C)cc21 (stereo not given)
    109	x	x	2
CCC1Cn2c(C(=O)NCCCOC)cc3c(Cl)ccc(c32)O1 (stereo not given)
    98	x	x	-10
CC1=CC(=C2C(=O)c3ccccc3C2=O)C=C(C)N1CC(C)C
    104	95	77	-55
CCCc1c(C)nc(SCC(=O)C(C)(C)C)[nH]c1=O
    99	100	85	0
O=C1COc2ccc(C(=O)NC3CCCCC3)cc2N1
    100	x	x	3
NS(=O)(=O)C1CCC(F)CC1 (stereo not given)
    x	91	93	0
Cn1c(=O)c2[nH]c(SCC(=O)c3ccc(F)cc3)nc2n(C)c1=O
    101	x	x	-5
CC(C)(C)c1ccc(C(=O)Nc2c(C(=O)c3ccc(F)cc3)oc3ccccc23)cc1
    103	92	89	-19
COc1ccc(N2CCN(c3ncnc4onc(C)c34)CC2)cc1
    99	112	93	x
NC(=S)Nc1ccccc1OC(F)(F)F
    100	89	86	-20
O=C(CCN1CCN(c2ccccc2)CC1)N/N=C1/CCCc2ccccc21
    x	92	96	-6
Oc1ccccc1-c1nc(N2CCCCC2)c2ccccc2n1
    98	101	90	-2
CCS(=O)(=O)NCCc1csc2nc(-c3ccccc3)nn12
    104	118	95	-11
Cc1ccc(/C=C2/SC(=O)NC2=S)o1
    80*	33	7	x
CN(C)S(=O)(=O)c1ccc2nnn(OCC(=O)NC34CC5CC(CC(C5)C3)C4)c2c1
    x	105	93	-28
CC(=O)c1cccc(NS(=O)(=O)c2c(C)nc3sc(C)cn3c2=O)c1
    106	113	79	x
Cc1nn(C)c(C)c1CN(C)C(=O)c1cnn2c(C(F)(F)F)cc(-c3ccc(Br)cc3)nc12
    102	x	x	-30
COc1ccccc1NC(=O)CSc1nc2c(oc3ccccc32)c(=O)n1-c1ccccc1F
    100	88	86	-34
COc1ccc(F)cc1S(=O)(=O)NCCc1csc2nc(-c3cccc(C)c3)nn12
    102	106	82	x
N#CCCn1cccc1CN1CCOCC1
    106	108	92	-1
CCCCN(C)CCNC(=O)CN1C(=O)CSc2ccc(S(=O)(=O)N3CCOCC3)cc21
    103	105	90	x
COc1cc(CC(=O)O)ccc1O
    104	x	x	-14
Cc1ccc(CCNS(=O)(=O)c2cc3c(cc2Cl)NC(=O)CO3)cc1
    100	96	91	-7
CSCc1c(C(=O)NCc2ccc3c(c2)OCO3)oc2ccccc12
    x	88	97	-18
COc1cc(NC(=O)CC2Sc3ccc(S(=O)(=O)N(C)C)cc3N(C)C2=O)cc(OC)c1 (stereo not given)
    103	x	x	-8
NC(=O)c1c(/N=c2\oc3ccc(Br)cc3cc2C(N)=O)sc2c1CCCC2
    129	x	x	-19
CC(C(=O)N1CCCCC1)n1c2ccccc2c2cnn(C)c(=O)c21 (stereo not given)
    101	123	98	x
CO/N=C(/C(=O)NC1C(=O)N2C(C(=O)O)=C(COC(N)=O)CSC12)c1ccco1 (stereo not given)
    x	-1.0*	-0.7*	-1
CC1=C(c2ccccc2)S(=O)(=O)NC1=NCc1ccccc1
    106	78	80	-27
COC(=O)C1COc2ccccc2O1 (stereo not given)
    x	104	85	-21
Cn1nnnc1SCCNCc1ccc2c(c1)n(C)c(=O)n2C
    99	x	x	-23
CCCCN1CC(O)=C(c2nc(-c3ccc(Cl)cc3)cs2)C1=N
    x	96	102	-11
O=C(CC1C(=O)N(c2ccccc2)C(=S)N1CCc1ccc(F)cc1)Nc1ccc(F)cc1 (stereo not given)
    97	104	84	x
CCCOC(=O)c1c(NC(=O)C(C)Sc2nc(-c3ccccc3)cc(C(F)(F)F)n2)sc(C(=O)N(C)C)c1C (stereo not given)
    101	112	103	-4
CC(Sc1nnc(N)s1)C(=O)Nc1cccc2ccccc12 (stereo not given)
    105	74	97	13
CN1C(=O)c2ccccc2C(C(=O)NC2CC2)C1c1c[nH]c2ccccc12 (stereo not given)
    114	112	100	2
COc1cc(C(=O)/C=C/Nc2ccccc2C(N)=O)cc(OC)c1OC
    117	66	100	x
CCN(CC)C(=O)C1CCCc2c1[nH]c1ccc(Cl)cc21 (stereo not given)
    106	x	x	-19
Cc1ccc(C(=O)Nc2ccc(Cl)c(-c3nc4ncccc4o3)c2)c(C)c1
    105	100	88	-18
COc1ccc(-c2nonc2NC(=O)C(C)Oc2ccc(C)c(C)c2)cc1C (stereo not given)
    102	x	x	-3
CCc1ccc(N=Nc2sc3nc4c(c(=O)n(C)c(=O)n4C)n3c2O)cc1
    x	84	84	-28
COc1ccc2c(Sc3ccccc3)c(C(=O)NCCN3CCN(C)CC3)[nH]c2c1
    106	123	78	-3
O=C(c1ccc(F)cc1)c1cccnc1
    103	113	104	-10
COC(=O)c1csc(S(=O)(=O)N=S(C)(=O)c2ccccc2)c1OC (stereo not given)
    103	93	83	-26
CC(=O)NCCc1nc2cc(NC(=O)COc3ccc(C)cc3)ccc2n1C
    103	x	x	-19

Following part
Values run as follows: GIV Gai3 FP	Sa growth 42C	Sa growth 42C second temp	HCMV NEC inh
Cc1ccc(NC(=O)Cn2nc(N3CCN(c4ccccc4)CC3)ccc2=O)cc1F
    103	92	72	x
CCC(Sc1nnc2c3ccccc3n(C)c2n1)C(=O)Nc1ccc(S(N)(=O)=O)cc1 (stereo not given)
    x	94	83	-19
CCOC(=O)CCN1C(=O)c2ccccc2C1=O
    107	95	93	8
CCCNC(=O)c1ccc2c(c1)N(CC)CCS2
    98	96	85	x
Cc1ccc(CNC(=O)c2ccc3c(c2)nc2n3CCCC2)cc1
    104	100	89	x
